KSHV LANA nucl: inhibitors of KSHV LANA-nucleosome binding, primary screen, biochemical, fluorescence polarization, FITC-LANA1-23, chicken nucleosomes; FITC-LANA1-23 / chicken nucleosome fluorescence polarization; hits give low values; z-score (no concentration beside the values); actives 0.3% (n = 51,000); AID 720717, 2013;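 active means both repeat wells score below -2 in polarization z-score versus plate sample wells, excluding overly bright wells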;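 further: 100 nL library stock added to about 30 µL; numbers are from one replicate; some results filed as inactive read as strong as hits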
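Material: Purified chicken nucleosomes with FITC-labelled LANA N-terminal peptide (1-23) | Reagent: 50 nM FITC-LANA1-23 probe | Medium: TEN-BT buffer, pH 7.5 | Times: 10–45 min incubation at room temperature | Detection: Fluorescence polarization | Replication: Duplicates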
Ab BasE inh: BasE siderophore enzyme inhibitors, primary screen, biochemical, Acinetobacter baumannii ATCC 17978, fluorescence polarization. purified BasE, fluorescence polarization binding displacement. inhibition, % (concentration not given with the values). AID 485350, 2010. actives 0.1% (n = 84,000);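 active means both replicates above 25% with normal brightness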;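 further: 0% = negative plate control signal and 100% = positive plate control signal; stock transfer was 100 nL into about 30 µL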
Numbers without * were called inactive; x = not tested or not shown; & = joins results of further samples.

Order of values – KSHV LANA nucl | Ab BasE inh
> O=C1c2ccccc2C(=O)N1CN(C(=O)c1cccnc1)c1cccc(F)c1
 : x | 0.8
> COC(=O)c1ccccc1NC(=O)c1ccc(Cn2cc(Cl)cn2)o1
 : 2.27 | 0.1
> Cc1cc(C)c2c(n1)sc1c(=O)[nH]cnc12
 : x | 2.6
> CC(=O)N1CCCCNC1=S
 : x | -0.1
> Cc1ccc(S(=O)(=O)N2CCN(c3nc(-c4ccccc4)ns3)CC2)cc1
 : -0.361 | 2.5
> C=CCn1c(=O)n2ncnc2c2c3c(sc21)CCCC3
 : -1.54 | 0.9
> Cn1c(=O)oc2cc(S(=O)(=O)N3CCC(C(=O)Nc4ccc(Br)cc4)CC3)ccc21
 : -0.541 | 0.8
> CN(C)C(=O)NCc1ccc(S(N)(=O)=O)cc1
 : -1.21 | -0.7
> CC(C)S(=O)(=O)c1cnc(-c2cnccn2)nc1N
 : -0.549 | 2.0
> O=C1c2cccc3cccc(c23)C(=O)N1O
 : 0.113 | -1.2
> CN1C2CCC1CC(NS(=O)(=O)c1ccc(C#N)cc1)C2 (stereo not given)
 : 1.26 | x
> CC1(C)CC(=O)C(C=NC(C)(C)C)=C(O)C1
 : -0.074 | -1.4
> CCS(=O)(=O)N1Cc2ccccc2CC1C(=O)Nc1ccc(NC(C)=O)cc1 (stereo not given)
 : x | 0.0
> COC(=O)c1sccc1-c1ccc(-c2ccn(C(=O)c3ccc(Cl)cc3)n2)o1
 : x | 0.3
> O=c1c(Cl)c(Cl)cnn1Cc1cc(=O)n2ccsc2n1
 : x | 0.0

(listing goes on)
Order of values – KSHV LANA nucl | Ab BasE inh
> Cc1cc(C(=O)CCC(=O)N2CCN(c3ncccn3)CC2)c(C)s1
 : x | -3.4
> CCOC(=O)c1c(O)c2cccc3c2n(c1=O)CC3
 : 1.1 | x
> COc1ccc(-n2ncc(NC(=O)NCc3cccs3)c2C)cc1
 : 0.117 | -2.1
> O=C(CSc1nnc2ccccn12)Nc1ccc2ccccc2c1
 : x | 8.1
> CCCCCNc1nc(-c2ccco2)c2c(c1C#N)CCCC2
 : -0.525 | -0.2
> COc1ccc(N2CCN(CCNC(c3ccc(F)cc3)c3nnc(-c4ccccc4)o3)CC2)cc1 (stereo not given)
 : -0.453 | 1.9
> O=C(Cn1c(NCCO)nc2ccccc21)c1ccccc1
 : 0.152 | -0.7
> NC(=O)C1=CN(C(=O)Nc2ccc(Cl)cc2)CCC1C(F)(F)F (stereo not given)
 : x | 0.1
> COc1cc([C@@H]2c3cc4c(cc3[C@H](O)[C@H]3COC(=O)[C@@H]23)OCO4)cc(OC)c1OC
 : -0.928 | -0.7
> C=CCn1c(SCC(N)=O)nnc1C1CCCCC1
 : -1.06 | 0.3
> CCN(CC)C(=O)CN1CCN(c2cccc(Cl)c2)CC1
 : 2.22 | -3.9
> COc1ccc(-n2ncc(C(=O)Nc3ccc4nccnc4c3)c2C)cc1
 : x | 1.9
> O=C(O)COc1c(-c2ccccc2)oc2ccccc2c1=O
 : -0.387 | 1.0
> C(=NCC1CCC(CN=Cc2ccco2)CC1)c1ccco1 (stereo not given)
 : x | -0.7
> COC(=O)C1(C(O)c2ccc(Cl)cc2)CCCCC1 (stereo not given)
 : 0.117 | 1.9

(more compounds)
Order of values – KSHV LANA nucl | Ab BasE inh
> Cc1ccc(-c2cnc(-c3ccncc3)o2)cc1
 : -0.125 | -3.4
> COc1ccc(-c2nc(N3CCCCC3)c3ccccc3n2)cc1
 : 2.12 | -2.7
> C/C(=N\NC(=O)COc1ccc(Br)cc1)c1ccc2c(c1)OCO2
 : x | 0.5
> COc1cccc(N2CC(=O)N(/N=C/c3ccc(Cl)cc3)CC2=O)c1
 : -0.348 | 3.0
> O=C(COC(=O)c1c(C(F)(F)F)cccc1C(F)(F)F)c1ccc(Cl)cc1
 : x | -1.2
> Cc1ccc(NC(=O)NC2CC(C)(C)NC(C)(C)C2)cc1
 : -0.288 | 1.6
> O=C(CN1CCN(c2ccc(F)cc2)CC1)N1CCCC1
 : -0.689 | 1.5
> Cc1noc(C)c1C(=O)OCC(=O)N(c1ccccc1)C1CCCCC1
 : x | 0.7
> CC(C)C(=O)Nc1ccc2c(c1)C(=O)NC2=O
 : -0.355 | 1.2
> Clc1cc(CSc2nnnn2C2CCCC2)cc2c1OCCCO2
 : x | 0.0
> O=C(Nc1ccccc1N1CCCC1)c1cccc(OCc2ccccc2)c1
 : x | -0.5
> COc1cccc(-c2nn(C)c3sc(C(=O)NCc4ccccn4)cc23)c1
 : -0.116 | -1.8
> CCOc1cc(C=C2C(=O)OC(C)(C(C)(C)C)OC2=O)ccc1O (stereo not given)
 : -1.05 | 0.9
> O=C(C(NS(=O)(=O)c1cccc2nsnc12)c1ccccc1)N1CCN(c2ccc(F)cc2)CC1 (stereo not given)
 : -1.01 | 0.7
> CCC(C)c1ccccc1OCCCCN1CCN(C)CC1 (stereo not given)
 : 0.758 | -2.1

Next part:
Order of values – KSHV LANA nucl | Ab BasE inh
> Cc1ccc2c(c1)CCCN2C(=O)CC1OC(=O)c2ccccc21 (stereo not given)
 : x | 2.3
> O=C(NCCN1CCOCC1)c1cccc(S(=O)(=O)Nc2ccccc2F)c1
 : x | -0.3
> Cc1ccc(C(=O)N(C)Cc2nc3ccccc3c(=O)[nH]2)c(O)c1
 : x | 6.0
> C[N+](C)(C)CCO
 : 0.647&-0.617 | -0.5
> Cc1csc(NC(=O)CN2C(=O)COc3ccc(Cl)cc32)n1
 : 0.629 | -0.4
> O=C(CSc1nnc2n1CCCCC2)Nc1ccnn1C1CCCC1
 : x | -1.3
> O=C(c1ccco1)N1N=C2c3ccccc3CCC2C1c1ccc(F)cc1 (stereo not given)
 : x | 4.7
> Cc1ccc(C(N)=S)c(=O)[nH]1
 : x | 5.4
> N#C/C(=N\Nc1ccc(C(=O)O)cc1)C(=O)c1ccccc1
 : x | 4.7
> O=C(O)c1ccccc1C(=O)n1c(COc2ccc(Cl)cc2Cl)nc2ccccc21
 : x | -0.7
> NC(CCC(F)(F)F)C(=O)O (stereo not given)
 : 0.0065 | -0.8
> CCN(CC)C(=O)Cn1ncc2c3ccccc3n(Cc3ccc(F)cc3)c2c1=O
 : -0.613 | -1.8
> C=CCn1c(C2COc3ccccc3O2)n[nH]c1=S (stereo not given)
 : x | 4.9
> Cc1ccc(-c2noc(-c3c[nH]c4ccc(S(=O)(=O)NC(C)C)cc4c3=O)n2)cc1
 : 1.49 | 0.0
> COc1cc(C2=NOC(C(=O)N3CCN(c4ccc(F)cc4)CC3)C2)cc(OC)c1OC (stereo not given)
 : -1.62 | -1.3

(continued)
Order of values – KSHV LANA nucl | Ab BasE inh
> CCOc1nnc(NS(=O)(=O)c2ccc(N)cc2)o1
 : -0.0575 | 2.5
> CCN(CC)C1=NC(=O)C(CC(=O)Nc2cccc(C(=O)OCC(=O)N(C)C3(C#N)CCCCC3)c2)S1 (stereo not given)
 : x | 1.4
> C/C(COc1ccccc1O)=N\NC(N)=O
 : x | 2.1
> COCCn1c(=O)sc2ccccc2c1=O
 : -0.502 | x
> CC(C)(C)C(=O)Nc1ccc(C(=O)Oc2ccccc2)c(O)c1
 : 0.325 | -2.6
> CCOc1ccc(Nc2nc(O)c(N=Nc3ccc(C(=O)O)cc3)s2)cc1
 : x | 7.1
> c1ccc(-n2c(SCc3nc4ccccc4o3)nnc2C2CC2)cc1
 : x | 2.6
> COc1c2c(cc3c1C(CC(=O)c1ccccc1)N(C)CC3)OCO2 (stereo not given)
 : -0.689 | 5.5
> Cc1cc(C(=O)COC(=O)c2ccccc2NS(C)(=O)=O)c(C)n1C1CC1
 : x | -2.7
> C(=NCc1ccco1)c1cn(-c2ccccc2)nc1-c1ccccc1
 : x | 0.0
> OCCN/N=C/c1cccc(OC(F)F)c1
 : x | 2.3
> Fc1ccc(C(c2nnnn2C2CCCC2)N(Cc2ccccc2)Cc2ccco2)cc1 (stereo not given)
 : 0.063 | -2.2
> O=C(CN1CCN(c2ccccc2)CC1)N1CCCc2ccccc21
 : 0.683 | x
> Clc1ccccc1OCCOc1ncnc2sccc12
 : x | -1.8
> CCOC(=O)c1cnn(-c2ccc(Cl)nn2)c1/N=C/N(C)C
 : x | -0.4

Further entries follow.
compound | KSHV LANA nucl | Ab BasE inh
CNC(=O)N(O)C1N(c2ccccc2)C(=S)SC1(C)C (stereo not given) | -0.641 | 3.0
CCCCc1oc2ccccc2c1C(=O)c1cc(I)c(OCCN(CC)CC)c(I)c1 | 0.635&0.378&-0.168&0.163&0.837 | 1.4&-6.1
CC(O)Cn1c(NCc2ccccc2)nc2c1c(=O)n(C)c(=O)n2C (stereo not given) | -0.932 | 0.6
CC1(C)S[C@@H]2[C@H](NC(=O)Cc3ccccc3)C(=O)N2[C@H]1C(=O)O | -0.279&-0.0875&0.99 | -0.7&-0.2
CCc1cc2c(=O)[nH]cnc2s1 | 0.174 | -1.2
O=C(CN1CCN(Cc2cccc(Cl)c2)C1=O)N1CCCC1 | 0.852 | -3.3
O=C1OC2(CCCCC2)OC(=O)C1=Cc1ccoc1 | x | 3.4
Cc1ccccc1OCC(=O)N1CCOCC1 | -0.347 | 1.8
COc1ccc(C2Oc3ccccc3C3CC(c4ccc(C)o4)=NN32)cc1OC (stereo not given) | x | -4.8
O=C(CC(Nc1ccccc1)C(=O)O)c1ccccc1 (stereo not given) | x | -3.0
O=C(N/N=C/c1ccco1)c1ccc(CN2c3cccc4cccc(c34)S2(=O)=O)cc1 | x | 0.1
NNC(=O)c1oc2nc(-c3ccccc3)cc(-c3ccco3)c2c1N | -1.59 | 1.6
CN(C)S(=O)(=O)c1cccc(COC(=O)C2=NNC(=O)CC2)c1 | x | -3.6
CCCOC(=O)Nc1cccc(C(=O)OCCC)c1 | x | 1.0
COc1ccc([C@@H]2CC(=O)c3c(O)cc(O)cc3O2)cc1O | -0.404 | -1.2
CP(=O)(Nc1cc(Cl)ccc1Cl)c1nc2c(s1)CCCC2 (stereo not given) | -1.86 | -0.1
Cc1ccc2oc(=O)n(CCc3noc(-c4cc(C)on4)n3)c2c1 | x | -1.4
Clc1ccc(-c2noc3ncnc(NC4CCCC4)c23)cc1 | 1.84 | -1.5
COc1ccc(NC(C)=O)cc1NC(C)C(=O)NC(C)c1ccc(F)cc1 (stereo not given) | x | 1.9
O=C(CN1CCCC1c1cccs1)NC(=O)Nc1ccccc1 (stereo not given) | x | -1.3
COc1ccc(C(C(=O)NC2CCCC2)N(C(=O)c2ccco2)c2ccc(NC(C)=O)cc2)cc1OC (stereo not given) | 0.0875 | -0.3
Cc1ccc(Nc2nn(CN3CCOCC3)c(=S)s2)cc1 | x | 1.9
COc1cccc(OC)c1C(=O)Nc1ccc2c(c1)CCCN2C(=O)C1CC1 | 1.49 | -0.2
Cc1cc(CNC(=O)Nc2c(C)noc2C)c(C(F)(F)F)o1 | x | 0.2
CNC(=O)c1c(-c2ccccc2)oc2ccc(OC)cc12 | 1.53 | -3.8

(list continues)
compound | KSHV LANA nucl | Ab BasE inh
CCOC(=O)c1sc(NC(=O)C=C(C)C)c(C#N)c1C | -0.818 | 0.0
NC(=O)NC(=O)CC1Sc2ccccc2NC1=O (stereo not given) | -0.915 | -0.6
CC(C)c1ccc(S(=O)(=O)N2CCN(C(=O)c3cc(-c4ccccc4)n[nH]3)CC2)cc1 | -0.152 | -0.6
CC1Cc2ccccc2N1C(=O)/C=C/c1cn[nH]c1-c1cc2ccccc2o1 (stereo not given) | x | -0.1
CCCCN(C(=O)CN1CCc2ccccc21)c1c(N)n(Cc2ccccc2)c(=O)[nH]c1=O | x | -13.0
N=C(N)SCc1ccc(C(F)(F)F)cc1 | 1.63 | x
COc1cc(C(F)(F)F)nc2ccc(C)c(NC(=O)Nc3ccc(OC(F)(F)F)cc3)c12 | x | -0.5
CC1CCCC(C)N1C(=O)/C(C#N)=C/c1ccc2c(c1)OCO2 (stereo not given) | x | -1.3
O=S1(=O)N=C2CCCCCN2C(CSc2nnc(CN3CCCCC3)n2Cc2ccccc2)N1 (stereo not given) | x | -0.6
Cc1ccc(CCP(=O)(O)CCC(=O)O)cn1 | x | 1.1
CSc1nc2ccccc2n1CCO | x | 0.7
OCCN1CCSC1=Nc1cccc2ccccc12 | x | -1.8
COc1ccc(-n2c(SC(C)C#N)nc3ccccc32)cc1 (stereo not given) | x | -6.1
O=C(CSc1nc2cc(Cl)ccc2o1)NCC(F)(F)F | x | -0.8
CCC(=O)N1CCc2cc(Br)cc(S(=O)(=O)N3CCC(C(=O)NCc4ccc(C)o4)CC3)c21 | 0.495 | 0.5
CCN(CC)c1nc2ccccc2nc1C(C#N)C(=O)NCCc1ccccc1 (stereo not given) | -3.88 | 12.4
CCOC(=O)c1c(C)oc2nc(C)nc(NCc3ccc(CN4CCCCC4CC)o3)c12 (stereo not given) | x | -1.9
Cc1cc(C)cc(NC(=O)NN2C(C)CCCC2C)c1 (stereo not given) | 1.3 | 1.5
c1ccc2c(c1)NC(c1ccc3nsnc3c1)c1cccn1-2 (stereo not given) | -0.27 | 3.6

Rewritten with each value named: part of the list above.
COc1cccc(-c2nn(C)c3sc(C(=O)NCc4ccccn4)cc23)c1
  KSHV LANA nucl: -0.116
  Ab BasE inh: -1.8
CCOc1cc(C=C2C(=O)OC(C)(C(C)(C)C)OC2=O)ccc1O (stereo not given)
  KSHV LANA nucl: -1.05
  Ab BasE inh: 0.9
O=C(C(NS(=O)(=O)c1cccc2nsnc12)c1ccccc1)N1CCN(c2ccc(F)cc2)CC1 (stereo not given)
  KSHV LANA nucl: -1.01
  Ab BasE inh: 0.7
CCC(C)c1ccccc1OCCCCN1CCN(C)CC1 (stereo not given)
  KSHV LANA nucl: 0.758
  Ab BasE inh: -2.1

Source: PubChem (ICCB-Longwood Screening Facility, Harvard Medical School)

These rows are one share of the data; count on the stated rates, not on these rows.
